gsp antagonist = gsp mutant antagonism | AID 624288 | gsp-mutant cells, cAMP HTRF, 30 min; control for the full effect not named in the record | 340,000 tested, 0.4% active | Potency, µM (doses to about 76.9 µM), without a hit: top-dose activity change, negative = inhibition, usual class: inhibitors; active = falling curve of any shape with a large fitted effect; inconclusive = falling curve, mostly with a smaller effect; inactive = flat or rising curve; cell line not stated here;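 also: intracellular cAMP measured with PDE inhibitor Ro 20-1724 present during compound exposure; potency is read from the fitted curve at half-maximal effect; % is scaled to controls: 0 for no effect and ±100 for the full control effect; nearly all actives have a fitted effect of over 65% in size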
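Cells, 2000/well, grown 16–24 h in DMEM 10% FBS with 0.5 mg/ml G418, then compounds plus […] (300 uM addition stock), 30 min at 37C. cAMP read by HTRF (cAMP-d2 and anti-cAMP antibody-K in lysis buffer) after 30 min RT.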
gsp agonist = activates gsp, the McCune-Albright syndrome mutation; gsp mutant cells, cAMP HTRF, 30 min; control for the full effect not named in the record; Potency, µM (titrated, usually from 76.9 µM), for the others: at the top dose activation (cAMP increase), hits mostly activators; 340,000 tested, 0.13% active; AID 624287; active = well fitted activation curve with a large enough effect; inconclusive = small, poorly fitted or top-dose-only effect, or another doubt; inactive = no such curve, though single readings can be large or run the other way; cell line not stated here;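 also: phosphodiesterase inhibitor Ro 20-1724 added with compounds to block cAMP breakdown; potency is read from the fitted curve at half-maximal effect; nearly all actives have a fitted effect of over 60% in size; about a fifth of the inactives were tested at one dose only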
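Cells stably selected in G418 were plated at 2000/well, grown 16-24 hr, then given compounds in DMSO with the PDE inhibitor […] (300 uM solution added) for 30 min at 37C; cAMP was read by HTRF.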
D2 potentiator = potentiates the human D2 dopamine receptor allosterically | AID 624464 | DiscoveRx D2 beta-arrestin cells, luminescence, 90 min; 100% = 57 uM dopamine signal | 360,000 tested, 0.23% active | potentiation, % (concentration not given with the values); active = potentiation of 50% or more; inconclusive = 30% to 50%; inactive = 30% or less;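 also: compound concentration not given in the record; tested on top of an EC20 dose of dopamine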
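D2 cells co-treated with compound plus 50 nM dopamine (EC20) for 90 min at 37 deg C to detect potentiation. Beta-arrestin recruitment was read as enzyme-fragment luminescence after 1 h at ambient temperature. Full response was set by 57 uM dopamine.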
CtBP-E1A inh = CtBP/E1A binding inhibition. AlphaScreen GST-E1A/His-CtBP binding, 1536-well; hits give low values; control for the full effect not named in the record. activity change, % (test concentration not listed). 340,000 tested, 0.49% active; in the data active means activity change below about -65%; inconclusive means about -30% to -65%; inactive means above about -30%; also: % is scaled to controls: 0 for no effect and ±100 for the full control effect; compound concentration not given in the record
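GST-E1A and His-tagged CtBP (125 nM each as 5X stock) were preincubated with pin-transferred compound for 2 h at 37 °C in the dark, then glutathione donor and nickel acceptor beads were added for 1 h before AlphaScreen reading.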
Six1-Eya2 blk = Six1/Eya2 interaction inhibition. activity change, % (concentration not given with the values). AlphaScreen GST-Six1/His-Eya2 binding, biochemical; hits give low values; control for the full effect not named in the record. Q15475+O00167. 360,000 tested, 0.56% active; in the data active = activity change below about -65%; inconclusive = about -30% to -65%; inactive = above about -30%; also: % is scaled to controls: 0 for no effect and ±100 for the full control effect
Target sequence (O00167 whole entry, looked up): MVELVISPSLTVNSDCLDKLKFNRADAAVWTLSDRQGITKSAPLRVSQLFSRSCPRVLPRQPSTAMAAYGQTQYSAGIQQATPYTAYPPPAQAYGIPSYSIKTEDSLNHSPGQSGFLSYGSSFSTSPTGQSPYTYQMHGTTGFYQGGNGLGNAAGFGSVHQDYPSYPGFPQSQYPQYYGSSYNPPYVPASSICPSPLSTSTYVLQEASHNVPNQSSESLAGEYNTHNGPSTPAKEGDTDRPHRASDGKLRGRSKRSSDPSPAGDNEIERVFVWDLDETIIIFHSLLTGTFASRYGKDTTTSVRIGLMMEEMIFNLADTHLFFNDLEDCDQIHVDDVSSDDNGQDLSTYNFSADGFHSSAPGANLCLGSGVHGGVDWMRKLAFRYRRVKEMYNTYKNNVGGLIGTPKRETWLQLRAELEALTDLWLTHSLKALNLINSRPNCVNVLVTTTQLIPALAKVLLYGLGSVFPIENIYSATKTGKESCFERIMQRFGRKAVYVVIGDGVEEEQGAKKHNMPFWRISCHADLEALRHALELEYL
Target sequence (Q15475 whole entry, looked up): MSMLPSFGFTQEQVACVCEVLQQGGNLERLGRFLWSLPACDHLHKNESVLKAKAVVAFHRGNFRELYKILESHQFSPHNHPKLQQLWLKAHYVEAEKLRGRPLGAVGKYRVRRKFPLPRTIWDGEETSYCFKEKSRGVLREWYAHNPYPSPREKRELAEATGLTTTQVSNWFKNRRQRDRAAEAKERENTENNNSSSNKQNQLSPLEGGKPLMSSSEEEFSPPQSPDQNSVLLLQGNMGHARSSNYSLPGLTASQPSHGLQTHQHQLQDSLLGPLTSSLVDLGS
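AlphaScreen luminescence read after one hour at 37 °C in darkness. Pin-transferred compounds met GST-Six1 and His-Eya2 protein (5X stock 250 nM/500 nM) plus glutathione donor and Ni-chelate acceptor beads (5X, 50 ug/mL).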
D2 ag = agonists of human D2 dopamine receptor (beta-arrestin); AID 624465; 360,000 tested, 0.084% active; activation, % (test concentration not listed); P14416; DiscoveRx PathHunter D2 beta-arrestin, luminescence, 90 min; 100% = 57 uM dopamine signal; in the data active = activation above about 40%; inconclusive = about 15% to 40%; inactive = below about 15%; also: compound concentration not given in the record; the text of the record calls up to 30% inactive
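DiscoveRx PathHunter D2 beta-arrestin cells (2,100/well) attached overnight, then compound-stimulated 90 min at 37 C in HBSS/10 mM HEPES/0.1% Tween-20 buffer; beta-galactosidase complementation read by luminescence after 1 h at ambient temperature. Dopamine 57 uM final (EC100) as control.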
The depositor's hits bear a star; ? = inconclusive; nt = no result given; [ ] = dose if it differs, or a comment.

SMILES	gsp antagonist	gsp agonist	D2 potentiator	CtBP-E1A inh	Six1-Eya2 blk	D2 ag
O=C(Cc1nnc(NC(=O)c2ccccc2)s1)N/N=C/c1ccco1	-13%	-29%	-12	8	3	-3.6
Cc1ccc(/C=N/Nc2ccc(C(=O)O)cc2)s1	-14%	-9%[15.4 µM]	12	-8	-1	1.2
Oc1cccc(CN2CCOCC2)c1O	5%	1%	23	12	-20	12
COC(=O)c1ccc(NC(=O)CSC2=NCCN2)cc1	11%	18%	-23	-14	11	-6.0
O=C(Nc1ccccn1)c1ccc2ccccc2c1O	-3%	-3%[15.4 µM]	-9	5	-19	6.2
Cc1ccc(C(=O)NC(=S)N2CCN(C(=O)OC(C)(C)C)CC2)cc1Br	1%	-2%	-12	nt	4	-5.4
[O-]/C(=C(\C(=S)NCc1ccc2c(c1)OCO2)[n+]1ccccc1)c1ccc(Cl)s1	-9%	3%	9	-17	-18	-19
C[C@@H]1CN([C@@H](C)CO)C(=O)c2cc(NS(C)(=O)=O)ccc2O[C@H]1CN(C)Cc1ccc(Oc2ccccc2)cc1	-6%	nt	-3	25	9	1.9
COc1ccccc1C(=O)NC(C)C(c1cccs1)N1CCN(C)CC1 (stereo not drawn)	5%	15%	-11	-18	-2	-5.1
O=C(N/N=C/c1cc(Br)c(Br)o1)c1cc2ccccc2o1	-18%	?	-37	3	-1	6.1
COc1cccc(OC)c1C(=O)OCC(=O)N(C)c1ccccc1	18%	-2%[15.4 µM]	-3	8	-1	-4.2
O=C(NOC(=O)c1cc(Br)ccc1Cl)c1cccs1	-4%	?	-9	-3	-3	-12
COc1ccc(NC(=O)CN2CCN(CC(=O)Nc3ccccc3Cl)CC2)c(OC)c1	-28%	8%	-9	8	3	-2.4
COc1cc(/C=N\NC(=O)c2ccccc2F)ccc1Oc1ccc([N+](=O)[O-])cn1	1%	1%[15.4 µM]	-9	-1	-2	0.3
CCCCCCN1C[C@@H](O)[C@H](n2cc(COC(=O)c3ccccc3)nn2)C[C@@H]1c1ccc(OC)cc1	nt	?	0	-8	-2	-11
CC(C)(C)C(=O)Nc1ccc(C(=O)N/N=C/c2ccccc2OC(=O)c2ccc(Cl)cc2Cl)cc1	-13%	5%	-5	?	-19	1.4
Cc1ccc(OCCNC(=O)/C=C/c2ccccc2)cc1C	-9%	-18%	-24	-13	1	-5.6
CCCNC(=O)c1ccccc1NC(=O)Nc1ccccc1C	0%	-14%	-15	-1	-2	-0.7
C[N+]1(CCOS(=O)C23CC4CC(CC(C4)C2)C3)CCOCC1 (stereo not drawn)	4%	28%	-1	-4	4	-0.1
O=[N+]([O-])c1cccc(-c2cc3ccccc3[nH]2)c1	-6%	10%	-2	-1	-3	0.8
COc1ccc(-n2cccc2/C=C2/NC(=O)N(c3cccc(Cl)c3)C2=O)cc1	7%	36%	-15	2	11	-3.8
CC(=O)Nc1ccc(C)c(NC(=S)Nc2ccc(F)cc2)c1	9%	2%	-20	nt	7	-6.6
CCNc1nc(N2CCCCC2)nc(-n2nnc(C(=O)OCC)c2C)n1	-5%	-13%	4	-3	-1	-0.7
N#CCC(=O)NCCCOC(=O)Nc1ccc(Cl)c(Cl)c1	-14%	-15%	-4	-1	1	-0.3
O=c1cc(-c2ccsc2)oc2ccc(-c3ccc4cc[nH]c4c3)cc12	?	2%	-9	-1	-12	-3.3
O=S(=O)(Nc1ccc(Br)cc1)c1cccc(NC(=S)NCCN2CCOCC2)c1	-11%	-13%[15.4 µM]	-6	-6	-1	-4.0
O=C(Nc1nccs1)c1ccc[nH]c1=O	8%	-12%	-22	nt	-5	-3.0
O=C(CN(C(=O)c1csnn1)c1cccc(F)c1)NCc1ccc(F)cc1	2%	5%[15.4 µM]	-4	6	-3	-1.7
CC(C)(C)C1CCC(C(=O)OCC(=O)Nc2ccc3[nH]c(=O)[nH]c3c2)CC1 (stereo not drawn)	8%	-7%	-4	-10	-8	-1.0
S=C(NCc1ccco1)N1CCOCC1	nt	-11%[15.4 µM]	-2	-17	9	-4.1

Part of the list above, showing only D2 potentiator, CtBP-E1A inh and D2 ag.
SMILES	D2 potentiator	CtBP-E1A inh	D2 ag
COc1cccc(OC)c1C(=O)OCC(=O)N(C)c1ccccc1	-3	8	-4.2
O=C(NOC(=O)c1cc(Br)ccc1Cl)c1cccs1	-9	-3	-12

Other entries:
SMILES	gsp antagonist	gsp agonist	D2 potentiator	CtBP-E1A inh	Six1-Eya2 blk	D2 ag
C=CCN(CC=C)C(=O)c1cc(Cl)ccc1[N+](=O)[O-]	8%	21%	-6	3	2	2.2
CCOC(=O)C1CCCN(c2c(N3CCN(c4ccccn4)CC3)c(=O)c2=O)C1 (stereo not drawn)	-13%	-42%[inhibitor]	-12	0	-1	-5.0
CC1COC2C(O1)N(S(C)(=O)=O)CCN2S(C)(=O)=O (stereo not drawn)	-3%	-5%	-9	6	2	-2.0
O=C(O)CCSc1nc2ccccc2n1CCOc1ccccc1	-26%	-16%	-1	8	2	-0.1
O=S(=O)(Nc1nc2ccccc2s1)c1cnc(Cl)c(Br)c1	-8%	-23%[15.4 µM]	0	3	-4	-0.9
O=C(NCCc1ccc(Cl)cc1)c1ccc(=O)[nH]c1	-9%	3%[15.4 µM]	-4	1	-1	-0.9
O=C(Nc1ccc(S(=O)(=O)NCC2CCCO2)cc1)C1CC(=O)N(c2ccccc2)C1 (stereo not drawn)	8%	-15%	-4	9	-6	1.5
CN(CC(=O)NCCc1ccc(F)cc1)Cc1cccc(Cl)c1	nt	11%[15.4 µM]	-8	0	-1	-5.2
CCc1c(-c2n[nH]c(=S)n2Cc2ccccc2)csc1C	10%	-2%	-7	-3	-1	1.6
CC(=O)Nc1ccc(S(=O)(=O)N(C)c2ccc(OCCOc3cccc(C)c3)cc2)cc1	-11%	0%[15.4 µM]	22	-4	-16	0.5
CC1=NN(c2ccccc2)C(=O)/C1=C\c1cn(C)c2ccccc12	-13%	7%[15.4 µM]	-11	-8	-1	-6.5
O=C(Nc1ccn(Cc2ccc(Cl)cc2)n1)c1ccccc1	-8%	-9%[15.4 µM]	-7	-13	-12	-3.2
COc1ccc(CNC(=O)C[C@H]2C[C@H](C(=O)N(C(C)C)C(C)C)[C@@]3(C)c4[nH]c5ccc(Cl)cc5c4CCN3C2=O)cc1OC	-22%	nt	-9	-7	-9	0.9
COC(=O)c1oc2ccccc2c1NC(=O)c1ccccc1O	nt	5%[15.4 µM]	-25	0	-9	-0.9
C=C(C)CSC1=C(C#N)C(c2ccccc2Cl)CC(=O)N1 (stereo not drawn)	8%	-74%[inhibitor]	-13	6	-3	-1.4
COCC(=O)Nc1ccc(F)cc1	5%	-46%[inhibitor]	0	19	15	-0.9
CCOC(=O)c1[nH]c(C)c(C(=O)OC)c1C	3%	-3%[15.4 µM]	-3	3	-2	-3.1
Cc1ccc(S(=O)(=O)N(C)C)cc1NC(=O)COC(=O)COc1ccccc1[N+](=O)[O-]	nt	20%[15.4 µM]	-2	8	8	-1.3
O=C(COC(=O)c1ccc[nH]c1=O)NCCC1=CCCCC1	-1%	23%	-5	13	4	-0.7
CC(C)CN(C(=O)COC(=O)/C=C/c1ccc(Cl)c(Cl)c1)c1c(N)n(Cc2ccccc2)c(=O)[nH]c1=O	6%	28%	1	0	3	-1.0
CN1CC(=O)N(CC(=O)NCCc2ccc(F)cc2)c2ccccc2C1=O	3%	9%	3	5	-2	0.9
Cn1c(=O)c(C(=O)NCCc2ccccc2)c(O)c2ccccc21	2%	-42%[inhibitor]	-2	20	21	-4.9
COc1ccc(NC(=O)c2ccc3[nH]c(=O)c(=O)[nH]c3c2)c(OC)c1	16%	?	-1	?	?	3.9
COc1ccc(-n2c(SCC(=O)Nc3cc(C)on3)nc3c(c2=O)SCC3)cc1OC	5%	-3%[15.4 µM]	-22	-2	5	-6.4
O=C(CC1CCCC1)N1CCN(S(=O)(=O)c2ccc(F)cc2)CC1	10%	1%	-12	1	-1	-0.5
COc1ccccc1C(=O)NCCC(=O)N(C)Cc1cccnc1	7%	-18%	0	6	6	-0.9
COc1ccc(C(NC(=O)C2CCN(C/C=C/c3ccc(OC(C)=O)c(OC)c3)CC2)c2ccccn2)cc1 (stereo not drawn)	nt	nt	-16	-18	-18	-7.1
COc1ccc(-c2cc(C(=O)Nc3cc(Cl)ccc3OC)no2)cc1	23%	2%[15.4 µM]	-8	-2	4	-3.5
CCOc1ccc(N(CC(=O)N2CCOCC2)S(=O)(=O)c2ccc(Cl)cc2)cc1	-10%	-36%[inhibitor]	-5	0	17	4.2
CCOc1ccc(S(=O)(=O)N(C)c2ccc(OCC(=O)NCc3ccco3)cc2)cc1	23%	-3%	-38	18	-7	-0.8
CN1CCN(c2ccc(Cl)cc2NC(=O)c2ccc(S(=O)(=O)N(C)C)cc2)CC1	16%	-38%[inhibitor]	2	-5	7	-2.4
CCc1cc2c(NC3CCCC3)ncnc2s1	?	18%	-10	3	11	-1.3
O=C(CCCN1C(=O)/C(=C/c2ccccc2Cl)SC1=S)NCCCN1CCOCC1	-7%	-16%	-12	-3	-12	0.3
CCCCNC(=O)CSc1ccc(S(=O)(=O)N2CCOCC2)cn1	7%	-26%	-9	nt	4	-1.5
N#CC1=C(S)N(c2ccccc2)C(c2ccco2)NC1=O (stereo not drawn)	1%	-14%[15.4 µM]	-1	3	-2	-1.1
O=C(CC[C@H]1O[C@@H](n2cnc3c(NC(=O)c4ccccc4)ncnc32)[C@H](O)[C@@H]1O)NCC(F)(F)F	nt	nt	2	5	1	-1.5
O=C1CSC(c2cccnc2)N1C1CCCCC1 (stereo not drawn)	11%	-20%	4	7	4	2.6
CC1(C)S[C@@H]2[C@H](NC(=O)COc3ccccc3)C(=O)N2C1C(=O)OCC1CCCCC1 (stereo partly drawn)	-12%	-32%[inhibitor]	-2	nt	-3	0.7
NC(=O)C1=C[C@H](c2ccccc2)C[C@H](OCc2ccc(CO)cc2)O1	4%	nt	-9	7	1	-0.3
O=[N+]([O-])c1ccc(N2CCN(Cc3cccc([N+](=O)[O-])c3)CC2)cc1	13%	11%	-5	-29	-17	-3.7
COc1ccc(C2Nc3ccccc3C(=O)N2Cc2ccccc2)cc1Cn1nnc2ccccc21 (stereo not drawn)	-12%	-28%	-7	2	-3	-1.5
CCc1noc(C)c1C(=O)NCCN1C(=O)S/C(=C\c2ccccc2F)C1=O	nt	-33%[inhibitor]	-6	-4	-4	0.6
CC1Sc2ccc(S(=O)(=O)N3CCC(C(=O)NCc4ccc(Cl)cc4)CC3)cc2NC1=O (stereo not drawn)	-6%	-27%	-5	2	-2	-3.3
O=C(CC1CCCCC1)NCc1ccc(F)cc1	5%	-17%	-11	0	1	-4.2
Cc1ccc(-c2nn(-c3ccccc3)cc2C=C2SC(=S)N(CCS(=O)(=O)O)C2=O)cc1	nt	nt	-7	?	?	-4.4
